NPYLR7 ag = mosquito NPYLR7 agonism. activation, % at 10 µM. AID 1259423. HEK293T NPYLR7/Galpha15, GCaMP6s calcium fluorescence. 0.15% of 270,000 active; in the data active = activation above about 40%;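 note: 0% = vehicle and 100% = reference agonist at the receptor; some compounds past the cut are filed as inactive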
NPYLR7 ag max-min = further read-out of NPYLR7 ag, marked with its call; activation, %; measured here: Max-Min RFU normalised activation; some inactives read as strong as hits;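 span of the calcium signal over five minutes; 0% = vehicle and 100% = native peptide agonist; compound fluorescence can raise it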
* = called active by the depositor. Only part of the results is shown, so the mix of outcomes need not match the whole.

SMILES	NPYLR7 ag	NPYLR7 ag max-min
CC1CN(c2cc(Cl)nc(SCC(=O)NCc3ccccn3)n2)CCN1C(=O)c1ccc(F)cc1 (stereo not drawn)	-4	-9
Cc1c(C)n2c3c(=O)n(CCC(C)C)c(=O)n(C)c3nc2n1-c1ccc(F)cc1	-1	2
COc1cccc(CSc2nnc(NC(=O)CSc3ccccc3)s2)c1	14	9
CC(C)OCC(=O)Nc1ccn(CCCn2ccnc2)n1	6	3
COc1ccc(-c2ccc(OCCNC(=O)CC3CCCC3)nn2)cc1	-4	-5
O=C(CSc1nnc(-c2ccco2)o1)N1CCN(C(=O)c2ccco2)CC1	8	15
COc1ccnc(N2C[C@H]3CC=CC[C@H]3C2)n1	1	8
COc1ccc(C(=O)COC(=O)c2ccccc2[N+](=O)[O-])cc1OC	-4	-12
CCCCC(O)CN(CCOC)Cc1c(CC)nn(-c2ccccc2)c1Oc1ccc(F)cc1F (stereo not drawn)	6	8
COCCN(CC(=O)N(CCc1ccc(OC)c(OC)c1)Cc1sccc1C)C(=O)c1ccc(Br)cc1	-12	-17
CCCn1nc(C(=O)N(C)Cc2ccc(C)o2)ccc1=O	1	0
O=C(Cn1cnc2sccc2c1=O)c1cccs1	0	-1
COc1ccc(OC)c(S(=O)(=O)NC(=O)C2(C)CCN2C(=O)C2(c3ccc(Cl)cc3)CC2)c1 (stereo not drawn)	5	4
CCOCCCN(CC(=O)N(Cc1cccn1Cc1ccccc1)C1CCCCC1)C(=O)c1cccc(F)c1	-2	6
CC(C)(C)c1ccc(C(=O)Nc2ccc(-c3cccc(-c4ccc5c(c4)OCCO5)n3)cc2)cc1	-7	-12
N#Cc1c(-c2cccs2)cc2c(c1N)c(=O)oc1ccccc12	3	1
Clc1ccc(-c2cccc(-n3cnnc3)c2)s1	17	7
Cc1noc(C2CCCN2Cc2cccc(C(=O)Nc3c(C)noc3C)c2)n1 (stereo not drawn)	-1	-2
COC(=O)CNC(=O)c1cc(OC)c(Br)c(OC)c1	1	1
O=C(N[C@@H]1C[C@H]2CC[C@@H]1C2)c1cccnc1Nc1cc(Cl)cc(Cl)c1	-15	-23
Cc1ccc(NS(=O)(=O)c2ccc(Cl)c(C(=O)N3CC(C)OC(C)C3)c2)cc1C (stereo not drawn)	-2	-6
COc1cc(OC)cc(C(=O)N2CCN(c3nc(C)nc(C)c3Cc3ccc(F)cc3)CC2)c1	6	9
O=C(COCc1ccccc1)N1CCOC(c2ccccc2)C1 (stereo not drawn)	24	27
Cc1cnc2c(C(=O)N3CCCC(OCc4ccccn4)C3)cnn2c1 (stereo not drawn)	5	2
COc1cccc(-c2cc(C(=O)NC(C)CCc3ccccc3)n3nc(C(C)(C)C)cc3n2)c1 (stereo not drawn)	-12	-3

Brought forward from above: 3 compounds, then new ones.
SMILES	NPYLR7 ag	NPYLR7 ag max-min
O=C(COCc1ccccc1)N1CCOC(c2ccccc2)C1 (stereo not drawn)	24	27
Cc1cnc2c(C(=O)N3CCCC(OCc4ccccn4)C3)cnn2c1 (stereo not drawn)	5	2
COc1cccc(-c2cc(C(=O)NC(C)CCc3ccccc3)n3nc(C(C)(C)C)cc3n2)c1 (stereo not drawn)	-12	-3
CCCCCCCCc1ccc(-c2ccc(C(=O)O)cc2)cc1	4	-33
CCc1cc(CN(C)C(=O)c2ccc(=O)[nH]c2)on1	2	2
CNc1snc(C)c1C(=O)N(C)Cc1ccc(C(=O)NCC(F)(F)F)cc1	-4	-5
Cc1ccn2c(=O)c(NC(=O)Cc3ccc(Cl)cc3)c(C)nc2c1	4	2
Cc1ccc(NC(=O)c2sc(=O)n(Cc3ccccc3C(F)(F)F)c2C)cc1	-2	-2
CC1CCc2c(sc3nc(C(C)C)nc(N4CCN(C(=O)c5cccc(Cl)c5)CC4)c23)C1 (stereo not drawn)	0	4
O=C1C2Sc3[nH]c(=O)sc3C(c3ccc(O)cc3)C2C(=O)N1c1ccc(Cl)cc1 (stereo not drawn)	10	11
Cc1cnn(CCC(=O)Nc2ncccc2Br)c1	20	17
CNc1cncc(-c2ccc(OC)cc2)n1	2	2
COc1ccc(NC2CCCN(C(=O)Cc3cnc(C)[nH]c3=O)C2)cc1 (stereo not drawn)	0	-1
COCCCn1c(N)c(C(=O)N2CCCC2)sc1=S	-5	-6
CCOc1ccccc1N1CCN(C(=O)c2cc(-c3cccc(OC)c3)n3nc(-c4ccccc4)cc3n2)CC1	14	15
C=CCn1c(SCc2ccc(OC)cc2)nnc1-c1ccc(F)cc1	-2	5
CC(C)c1ccc(CN(C(=O)CCNC(=O)c2ccccc2)C2CC2)cc1	7	3
COc1ccc(NC(=O)c2ccoc2C)c(N2CCN(C(C)=O)CC2)n1	5	-2
O=C(OCC(=O)N1CCC2(CC1)OCCO2)c1[nH]c2ccc(Cl)cc2c1Cl	-5	-5
Cc1cc(C)n(CCNC(=O)c2cccc(C#CC(C)(C)O)c2)c(=O)n1	22	10
CC(=O)c1cccc(-n2c(=O)c3ccc(Cl)cc3n(CC(=O)NCCN3CCCC3)c2=O)c1	20	32
Cc1cc([N+](=O)[O-])ccc1N1C(=O)/C(=C\c2cccc(OCCO)c2)N(C)C1=S	27	26
Cc1cccc(C)c1NC(=O)CN(C)C(=O)CSc1nncn1C1CC1	4	3
CCn1c(SCC(=O)N2CCCCC2)nnc1-c1cccn(C)c1=O	2	2
COc1ccc(N2CCN(C(=O)c3cc(-c4ccccc4OC)n4nc(C(C)(C)C)cc4n3)CC2)cc1	8	6
NCC1Cc2cc(-c3ccc(S(N)(=O)=O)s3)cc(Cl)c2O1 (stereo not drawn)	6	3
COc1ccccc1OCCN1CCC(C(=O)NC(c2ccsc2)c2ccccc2C)CC1 (stereo not drawn)	-6	-12
CCCc1c(C(=O)N2CCc3c([nH]c4ccc(OC)cc34)C2c2ccccc2OC)cnn1-c1ccccc1 (stereo not drawn)	25	7
Further structures
SMILES	NPYLR7 ag	NPYLR7 ag max-min
O=S(=O)(Nc1ccc(OC(F)F)c(Cl)c1)c1ccc(Cl)c(Cl)c1	-1	-3
CC(C)NC(=O)NC(=O)COC(=O)c1ccc([N+](=O)[O-])o1	15	8
Cc1c(F)cc(C(=O)O)cc1S(=O)(=O)Nc1ccccc1	5	1
CC(Oc1cccc(-c2ccc(C(=O)N(C)C)cc2)c1)C(N)=O (stereo not drawn)	6	6
O=C(N1Cc2cnn(CCO)c2C1)C1(c2ccccc2)CC1	1	-2
Cc1cc(OCC2c3ccsc3CCN2C(=O)CN(C(=O)c2cccs2)C(C)(C)C)ccc1Cl (stereo not drawn)	13	15
CC(C)(C)OC(=O)NC1CCN(C(=O)c2ccc(-n3nc(-c4cccc(C(F)(F)F)c4)cc3N)cc2)C1 (stereo not drawn)	-7	-13
Cc1cc(C)nc(NC(CC(C)C)c2cccnc2)n1 (stereo not drawn)	6	4
NC(=O)Cn1nc(-c2ccc(F)cc2)ccc1=O	9	4
Cc1cc(=O)n2[nH]cc(-c3ccc(Cl)cc3)c2n1	1	4
COc1ccc(C(C)CCNC(=O)NC2CCCC2O)cc1 (stereo not drawn)	4	3
Cn1c(CNC(c2ccc(F)cc2)C2CCC2)nnc1C1CC1 (stereo not drawn)	5	1
CC(C)NC(=O)C1(C)CCN1Cc1ccc(F)c(F)c1 (stereo not drawn)	3	3
O=C1c2ccccc2-c2c1cccc2C(=O)N1CC(=O)N2CCc3ccc(F)cc3C2C1 (stereo not drawn)	0	12
COc1ccc2ccc(=O)oc2c1CC=C(C)C	-8	-18
FC(F)(F)c1nnc(N2CCN(Cc3ccnc4ccccc34)CC2)s1	3	-2
O=C(CCCN1CCC(O)(c2ccc(Br)cc2)CC1)c1ccc(F)cc1	-4	-8
Cc1c(C(=O)N(C)C(C)c2cccnc2)nnn1Cc1ccccc1 (stereo not drawn)	1	-1
Cc1c(C(=O)N2CCCC2(C)C(=O)NCC(C)C)oc2ccccc12 (stereo not drawn)	3	1
O=C(Nc1cccc(-c2ccn[nH]2)c1)c1ccc2c(c1)OCO2	-4	-7
COc1ccccc1N1CCN(Cc2nc(NCc3ccc(C)o3)c3ccccc3n2)CC1	17	3
CC(C)c1noc(C2CCCN2C(=O)c2cc(=O)c3ccccc3o2)n1 (stereo not drawn)	4	3
CC1CN(c2cc(Oc3cccc(Cl)c3)ncn2)CCN1C(=O)CSc1ccccc1 (stereo not drawn)	12	10
CCOC(=O)c1cc(C(C)c2ccccc2)sc1NC(=O)CCSC (stereo not drawn)	4	2
Cc1ccc(C(=O)NCCc2cccc(F)c2)n1C	2	1

One compound at a time, from the list above.
`O=C1c2ccccc2-c2c1cccc2C(=O)N1CC(=O)N2CCc3ccc(F)cc3C2C1` (stereo not drawn) as listed: NPYLR7 ag = 0; NPYLR7 ag max-min = 12
`Cc1ccc(C(=O)NCCc2cccc(F)c2)n1C` as listed: NPYLR7 ag = 2; NPYLR7 ag max-min = 1

Structures listed so far that contain bromine, in the order listed:
SMILES	NPYLR7 ag	NPYLR7 ag max-min
COCCN(CC(=O)N(CCc1ccc(OC)c(OC)c1)Cc1sccc1C)C(=O)c1ccc(Br)cc1	-12	-17
COC(=O)CNC(=O)c1cc(OC)c(Br)c(OC)c1	1	1
Cc1cnn(CCC(=O)Nc2ncccc2Br)c1	20	17
O=C(CCCN1CCC(O)(c2ccc(Br)cc2)CC1)c1ccc(F)cc1	-4	-8

The list goes on.
SMILES	NPYLR7 ag	NPYLR7 ag max-min
COC(=O)[C@@H]1CCCN1C1CCN(c2ccc(C(=O)NCCN3CCOCC3)cc2)CC1	4	1
Fc1ccc2nc(N3CCc4ccccc4C3)sc2c1	8	3
CN(c1ccccc1)N1CC(C(=O)N2CCC(O)(Cc3ccccc3)CC2)CC1=O (stereo not drawn)	-22	-29
CCC(=O)NCc1cc(S(N)(=O)=O)ccc1OC	6	6
CCCC(O)CN1CC(C)(C)CN(C(=O)c2ccccc2)CC1=O (stereo not drawn)	-2	9
C=CCN(Cc1cccn1Cc1cccc(C)c1)C(=O)/C=C/c1ccc([N+](=O)[O-])cc1	-2	6
CCc1nnc(NC(=O)C2(c3ccccc3)CCC2)s1	-8	-10
COc1ccc(S(=O)(=O)N2CCCC(C)C2)cc1N1CCN(C(=O)c2cccc3ccccc23)CC1 (stereo not drawn)	2	-1
O=C(c1ccc(F)cc1)N(Cc1ccco1)C1CCS(=O)(=O)C1 (stereo not drawn)	12	1
COc1ccc(C(=O)N2CCN(c3ccc(F)cc3)CC2)cc1[N+](=O)[O-]	-2	-4
CN(C)C(=O)c1ccc2c(c1)N(C)C(CC(=O)NCCn1cncn1)CO2 (stereo not drawn)	4	1
O=C(O)CSCC(=O)N1CCCCC1	-1	0
COCCCn1cc(C(=O)N2CCN(C)CC2)c2nn(-c3ccccc3)c(=O)c-2c1	3	3
COc1ccc(N2CCn3c(SC/C=C/c4ccccc4)nnc32)cc1	6	4
Cc1ccc(OCCCn2cnc3ccccc32)cc1	-1	-3
O=c1cc(CN2CCOCC2)nc2sccn12	4	3
Cc1nn(C)c2sc(C(=O)NCC3OCCc4sccc43)cc12 (stereo not drawn)	1	0
COCCOC(=O)c1c2c(n3ccccc13)C(=O)c1ccccc1C2=O	-5	-9
Cc1ccc(C2(C(=O)N3CCC4(CCCO4)CC3)CC2)cc1	10	6
CC(c1cccs1)N(C)CC(=O)Nc1sc2c(c1C#N)CCC2 (stereo not drawn)	12	8
Cc1nnc(SCc2ccc(C(=O)N3CCN(c4ccccc4F)CC3)cc2)n1-c1cccc(Cl)c1	5	14
O=C1OC(c2ccco2)=N/C1=C\c1cccnc1	-8	-9
Cc1ccccc1C(=O)N1C(C(=O)NCC2CCCO2)COC12CCN(C(=O)c1ccc(F)cc1)CC2 (stereo not drawn)	1	21
COc1ccc(C(=O)N(CCC(C)C)CC(=O)N2CCc3sccc3C2c2ccc(Cl)cc2Cl)cc1 (stereo not drawn)	-2	3
C=CCN(C(=O)CCN1CCCCO1)C1CCCC1	7	5
(next part)
SMILES	NPYLR7 ag	NPYLR7 ag max-min
CO[C@H]1C(=O)N(Cc2ccccc2)C2(CCN(C(=O)c3cc(C)oc3C)CC2)[C@@H]1CO	26	26
C=CCN(C)C(=O)c1ccccc1N1CCOCC1	6	3
O=C(CCc1ccccc1)N1CCSC1c1ccc2c(c1)OCO2 (stereo not drawn)	1	10
Cc1csc2ncc(C(=O)N(C)Cc3ccccc3)c(=O)n12	-7	-6
O=C(c1cccc2nnnn12)N1CCC(c2cc(Cc3ccccc3)[nH]n2)CC1	-1	-2
Cc1cccc2c1C(=O)NC1(CCN(C(=O)COCc3ccccc3)CC1)N2	-1	3
COc1ccccc1OCCn1c(SCc2ccccc2)nc2ccccc21	15	22
COc1ccc(-c2cc(F)cc3c2OC(CNC(=O)c2cccc(Cn4nc(C)cc4C)c2)C3)nn1 (stereo not drawn)	16	2
COC(=O)C(CC(C)C)N1C(=O)C2C3c4ccccc4C(c4ccccc43)C2C1=O (stereo not drawn)	-3	-4
CSc1ncc(CNCc2sccc2C)c(N2CCN(C)CC2)n1	2	13

Source: PubChem BioAssay
